Compound activity from PubChem.
PINK1 expr mod: modulators of PINK1 expression | PINK1 immunofluorescence, high-content cytometry, 24 h | Potency, µM (doses to about 76.6 µM), without a hit: top-dose activation (PINK1 increase), most hits filed as activators | 410,000 tested, 0.2% active; active = well fitted activation curve with a large enough effect; inconclusive = small, poorly fitted or top-dose-only effect; inactive = flat fitted curve, though single readings scatter; cell line not stated here;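 note: potency is the fitted concentration of half-maximal effect; % of control where 0% means no effect; nearly all actives have a fitted effect of over 65% in size; a mitochondrial uncoupler was the plate control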
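Decision-based qHTS: stable cells, 24 h exposure to five compound concentrations, CCCP as control. Fixed cells stained for PINK1 plus nuclear, mitochondrial and cell markers, cytometer read.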
D2 agonist: activates the human D2 dopamine receptor; activation, % (test concentration not listed); DiscoveRx PathHunter D2 beta-arrestin, luminescence, 90 min; 100% = 57 uM dopamine signal; 360,000 tested, 0.084% active; P14416; in the data active = activation above about 40%; inconclusive = about 15% to 40%; inactive = below about 15%; note: compound concentration not given in the record; the text of the record calls up to 30% inactive
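DiscoveRx PathHunter D2 beta-arrestin cells (2,100/well) attached overnight, then compound-stimulated 90 min at 37 C in HBSS/10 mM HEPES/0.1% Tween-20 buffer; beta-galactosidase complementation read by luminescence after 1 h at ambient temperature. Dopamine 57 uM final (EC100) as control.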
CtBP-E1A inh: CtBP/E1A binding inhibition. AlphaScreen GST-E1A/His-CtBP binding, 1536-well; stronger effect = lower value; control for the full effect not named in the record. activity change, % (no concentration beside the values). 340,000 tested, 0.49% active; in the data active means activity change below about -65%; inconclusive means about -30% to -65%; inactive means above about -30%; note: % is set by controls: 0 for no effect and ±100 for the full control effect; compound concentration not given in the record
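GST-E1A and His-tagged CtBP (125 nM each as 5X stock) were preincubated with pin-transferred compound for 2 h at 37 °C in the dark, then glutathione donor and nickel acceptor beads were added for 1 h before AlphaScreen reading.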
Six1-Eya2 inh: Six1/Eya2 interaction inhibition. 360,000 tested, 0.56% active. AlphaScreen GST-Six1/His-Eya2 binding, biochemical; stronger effect = lower value; control for the full effect not named in the record. activity change, % (concentration not given with the values); in the data active = activity change below about -65%; inconclusive = about -30% to -65%; inactive = above about -30%; note: % is set by controls: 0 for no effect and ±100 for the full control effect
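Six1/Eya2 binding was read as AlphaScreen signal after compounds were pinned into GST-Six1 plus His-tagged Eya2 (5X stock 250/500 nM) in pH 8.0 Tris/NaCl/TCEP buffer, beads added, then incubated 1 h, 37 C, dark.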
TRPV1 PAM: enhances activation of the human vanilloid receptor TRPV1; TRPV1-expressing cells, Fluo-8 calcium influx, capsaicin EC20 potentiation; host cell line not named in the record; control for the full effect not named in the record; potentiation, % at 8.33 µM; Q8NER1; AID 540277; 320,000 tested, 0.02% active; active means potentiation above 80%; inconclusive means 30% to 80%; inactive means below 30%; note: 0% is about no effect
Target sequence (Q8NER1 whole entry, looked up): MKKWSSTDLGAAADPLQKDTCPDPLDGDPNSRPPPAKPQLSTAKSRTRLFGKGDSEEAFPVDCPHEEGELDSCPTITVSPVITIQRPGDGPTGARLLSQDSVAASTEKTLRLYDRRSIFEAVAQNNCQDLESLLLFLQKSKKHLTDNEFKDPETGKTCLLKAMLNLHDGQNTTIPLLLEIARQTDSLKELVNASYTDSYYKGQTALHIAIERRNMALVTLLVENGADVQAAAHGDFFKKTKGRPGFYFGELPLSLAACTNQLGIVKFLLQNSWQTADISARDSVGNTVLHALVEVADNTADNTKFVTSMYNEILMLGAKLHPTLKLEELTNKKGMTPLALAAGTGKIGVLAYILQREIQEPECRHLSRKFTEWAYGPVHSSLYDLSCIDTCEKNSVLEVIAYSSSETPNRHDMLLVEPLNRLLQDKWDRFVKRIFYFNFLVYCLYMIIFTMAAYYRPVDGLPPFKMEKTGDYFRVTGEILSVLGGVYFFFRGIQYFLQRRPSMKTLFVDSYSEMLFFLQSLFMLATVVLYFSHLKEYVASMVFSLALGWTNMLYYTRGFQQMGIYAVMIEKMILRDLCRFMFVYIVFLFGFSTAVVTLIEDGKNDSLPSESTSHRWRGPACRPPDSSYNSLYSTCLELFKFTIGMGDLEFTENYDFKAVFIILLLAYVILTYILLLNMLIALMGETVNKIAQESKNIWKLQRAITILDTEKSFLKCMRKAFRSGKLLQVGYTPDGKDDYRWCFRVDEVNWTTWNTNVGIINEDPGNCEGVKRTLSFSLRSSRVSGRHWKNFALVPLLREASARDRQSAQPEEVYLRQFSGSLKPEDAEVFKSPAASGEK
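Fluo-8 calcium influx in TRPV1-expressing cells, kinetic read (ex 480/em 520 nm). Compound added and read 3 min for agonist activity, followed by capsaicin at EC20 final and 2 min further read for enhancement.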
Sfp inh: inhibitors of Bacillus subtilis Sfp phosphopantetheinyl transferase; Biochemical Sfp PPTase activity, qHTS; 310,000 tested, 3.5% active; AID 1490; Q9F4F7; Potency, µM, for the others: max response, negative = inhibition, actives largely listed as inhibitors; active = well fitted inhibition curve with a large enough effect; inconclusive = small, poorly fitted or top-dose-only effect, or another doubt; inactive = no such curve, though single readings can be large or run the other way;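 note: the enzyme is Sfp with the accession as filed and its product quenches rhodamine fluorescence; potency is the fitted concentration of half-maximal effect; 0% = enzyme reaction without inhibitor and -100% = no enzyme wells; top concentration of the series not given in the record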
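Compounds were incubated with enzyme (final 15 nM) for 15 min at room temperature before substrate addition started the reaction. Fluorescence at 525 nm excitation, 598 nm emission was recorded immediately and after 30 minutes.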
D2 potentiator: positive allosteric modulators of human D2 dopamine receptor; AID 624464; potentiation, % (concentration not given with the values); P14416; DiscoveRx D2 beta-arrestin cells, luminescence, 90 min; 100% = 57 uM dopamine signal; 360,000 tested, 0.23% active; active = potentiation of 50% or more; inconclusive = 30% to 50%; inactive = 30% or less;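 note: compound concentration not given in the record; tested on top of an EC20 dose of dopamine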
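D2 cells co-treated with compound plus 50 nM dopamine (EC20) for 90 min at 37 deg C to detect potentiation. Beta-arrestin recruitment was read as enzyme-fragment luminescence after 1 h at ambient temperature. Full response was set by 57 uM dopamine.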
Numbers without * were called inactive; ? = inconclusive; · = no result given; [ ] = dose if it differs, or a comment.

Compound	PINK1 expr mod	D2 agonist	CtBP-E1A inh	Six1-Eya2 inh	TRPV1 PAM	Sfp inh	D2 potentiator
Cc1ccsc1C=C1C(=O)c2ccccc2C1=O	0.9%	-7.5	-1.3	-2.6	2.5	3.0%	-3.4
Cc1cc(C(=O)OC(C)C(=O)Nc2cccc(Cl)c2)on1 (stereo not given)	-2.6%	-1.0	-0.4	2.9	-11.8	·	-18.8
COC(=O)c1[nH]c2ccccc2c1NC(=O)CN1CCN(Cc2ccc3c(c2)OCO3)CC1	-0.4%	-1.4	-0.3	-6.0	-14.6	4.3%	-35.8
OC(CSc1ccccc1)CN1CCN(c2ccc(Cl)cc2)CC1 (stereo not given)	18.7%	-0.6	-13.3	-6.5	·	·	-14.7
CC(C)(C)OC(=O)N(Cc1ccccc1)Cc1cccc(OCc2cccc(NC(=O)c3ccccc3)c2)c1	1.0%	-2.5	-1.7	-7.4	·	·	·
COc1ccc(OC)c2[nH]c(C(=O)N3CCC(C(=O)O)CC3)cc12	1.2%	-1.6	·	5.6	4.3	-8.7%	-4.7
N#CC(c1ccc(N)cc1)C(CC(=O)c1ccccc1)c1ccccc1 (stereo not given)	3.6%	-5.3	1.5	-22.8	·	·	-8.4
Cc1ccc(S(=O)(=O)N(C)Cc2ccc(-c3nnc4n3CCC4)cc2)cc1	-2.0%	-2.5	0.1	-0.5	-10.7	1.2%	5.7
CC(=O)Nc1c(Br)cc2c(c1Br)Cc1cc([N+](=O)[O-])ccc1-2	1.6%	1.8	-6.8	-6.9	·	·	-6.2
CC(CC(=O)Nc1ncc([N+](=O)[O-])s1)c1ccccc1 (stereo not given)	?	-2.8	10.7	21.7	3.5	7.0%	-13.4
Cc1ccc(NC(=O)CSCC(=O)N(C)CC(=O)Nc2cccc(F)c2)cc1	0.2%	-5.4	-1.0	-0.6	-2.7	·	-8.7
O=C(CN1CCc2cc3c(cc2C1)OCCCO3)Nc1cccc(Br)c1	-0.2%	-2.4	-0.5	-5.9	16.3	4.3%	-31.9
COc1ccccc1CNC(=O)CSc1ccc(Br)cc1	2.0%	-4.0	20.1	2.8	2.0	-2.3%	-11.7
CCOc1cc(CNc2ccc(S(N)(=O)=O)cc2)ccc1OCC(=O)NC(C)(C)C	-1.7%	7.3	3.0	7.6	17.3	13.9%	2.6
Cc1nc2scc(-c3ccccc3)c2c(=O)n1/N=C/c1ccco1	-2.4%	-0.2	-9.0	-2.2	-14.8	-13.5%	-10.1
N#Cc1cccc(Nc2c3c(nc4ccccc24)CCCC3)c1	?	-6.3	0.7	-4.6	2.8	-4.8%	-5.0
Cc1ccccc1NC(=O)OCc1cn(-c2ccc(Cl)cc2)nn1	-1.6%	-0.8	0.6	4.4	10.7	15.5%	-2.5
O=C(Oc1ccc(Br)cc1C(=O)/C=C/c1ccccc1F)c1ccco1	-1.4%	-0.2	-0.5	-13.5	·	·	-3.1
CCCCn1c(N)c(N(CCOC)C(=O)c2cc(S(=O)(=O)N3CCCCC3)ccc2Cl)c(=O)[nH]c1=O	0.8%	-2.7	8.4	-1.9	-18.8	14.0%	-5.8
NC(=O)C1CCN(CC(O)COCc2ccccc2Cl)CC1 (stereo not given)	-2.3%	-2.4	-23.7	15.6	3.2	8.2%	-3.1
CC(C)(C)NCC(O)COc1ccccc1C1CCCC1 (stereo not given)	5.3%	-7.0	2.1	-0.2	7.3	·	-32.7
C[C@@H]1CN([C@@H](C)CO)C(=O)CCCn2nncc2CO[C@@H]1CN(C)S(=O)(=O)c1ccc(F)cc1	-0.6%	-0.9	1.1	-0.7	·	·	5.1
CCCCc1ccc(NC2=NCC(=O)N2CCc2ccccc2)cc1	9.0%	0.0	7.4	11.7	-7.4	4.5%	-4.9
CCN1C(=O)/C(=C/C=C2/SCCN2C)SC1=S	15.4%	-5.8	-10.5	2.5	-16.2	13.7%	19.7
CCOc1ccc(NC(=O)CSc2nnc(Cc3cccn3C)n2-c2ccc(OC)cc2)cc1	-0.8%[38.3 µM]	-2.5	-13.0	-13.5	-4.5	0.3%	-1.8
CCOC(=O)C1CSC(CC(=O)Nc2ccc(Cl)c(Cl)c2)C(=O)N1 (stereo not given)	6.9%	-1.4	-1.9	-3.6	19.8	-29.5%	8.2
CCc1ccc(Nc2n[n+](-c3ccccc3)c(-c3cccc(C)c3)s2)cc1	?	-0.9	0.7	-1.0	15.7	·	-43.2
CC(C)CNC(=S)N1CCN(Cc2ccc3c(c2)OCO3)CC1	0.7%	-2.7	-0.5	0.4	-11.7	79.4µM*	-13.5
CC[C@]12c3[nH]c4ccccc4c3CCN1C(=O)C(CC(=O)NCCCOC)C[C@@H]2C(=O)N1CCN(C(=O)c2ccco2)CC1 (stereo not given in full)	-0.1%	0.1	5.1	3.4	·	·	·
O=C(NCc1cccnc1)C1c2ccccc2C(=O)N1C1CCCC1 (stereo not given)	0.6%	-6.5	4.3	1.2	?	20.3%	-9.3
COc1ccc(OC)c(C(O)c2coc3ccc(O)c(CN(C)C)c23)c1 (stereo not given)	-0.9%	-2.9	3.8	-4.2	2.5	15.6%	-20.5
COc1ccccc1C(=O)NC(CCSC)C(=O)NCc1ccncc1 (stereo not given)	-0.4%	0.6	-4.3	3.9	3.1	·	-1.5
Cc1ncsc1C(=O)NCc1ccc(N2CCCC2=O)cc1	5.3%[38.3 µM]	-3.0	-13.2	-2.2	-15.0	-1.0%	-5.8
CC(=O)OC[C@@H]1CN(Cc2ccccc2)C[C@H](n2cnc3c(N4CCN(c5ccccc5)CC4)ncnc32)O1	-0.9%	-1.6	-20.6	?	·	·	-0.7
O=C(/C=C/c1ccco1)Nc1cc(Cl)ccc1C(=O)O	4.3%	-0.1	0.8	0.0	2.7	56.2µM*	-17.9
Cc1cccc(NC(=O)CSC2=NN3CCCC(=O)N=C3S2)c1C	1.7%	-1.4	-0.4	-14.4	8.4	3.7%	-5.4
CCOC(=O)C1=C(C)N=C2SCCC(=O)N2C1c1cccs1 (stereo not given)	-0.9%	-0.5	0.8	-5.6	19.0	4.4%	-12.2
NC(=O)CN(c1ccc(Cl)cc1)S(=O)(=O)c1ccccc1	-1.1%	-0.4	1.0	9.7	0.5	2.2%	-14.3
CC(=O)CC1(OC(C)=O)C(=O)N(C)c2ccccc21 (stereo not given)	8.2%	-5.5	-4.4	-1.8	0.0	4.8%	-8.1
CC(C)C(=O)N1CCCC1(C)C(=O)Nc1ccccc1 (stereo not given)	1.2%	5.6	5.7	2.3	·	·	-5.8

Part of the list above, field by field:
Cc1nc2scc(-c3ccccc3)c2c(=O)n1/N=C/c1ccco1
  PINK1 expr mod: -2.4%	D2 agonist: -0.2	CtBP-E1A inh: -9.0	Six1-Eya2 inh: -2.2	TRPV1 PAM: -14.8	Sfp inh: -13.5%	D2 potentiator: -10.1
N#Cc1cccc(Nc2c3c(nc4ccccc24)CCCC3)c1
  PINK1 expr mod: ?	D2 agonist: -6.3	CtBP-E1A inh: 0.7	Six1-Eya2 inh: -4.6	TRPV1 PAM: 2.8	Sfp inh: -4.8%	D2 potentiator: -5.0
Cc1ccccc1NC(=O)OCc1cn(-c2ccc(Cl)cc2)nn1
  PINK1 expr mod: -1.6%	D2 agonist: -0.8	CtBP-E1A inh: 0.6	Six1-Eya2 inh: 4.4	TRPV1 PAM: 10.7	Sfp inh: 15.5%	D2 potentiator: -2.5
O=C(Oc1ccc(Br)cc1C(=O)/C=C/c1ccccc1F)c1ccco1
  PINK1 expr mod: -1.4%	D2 agonist: -0.2	CtBP-E1A inh: -0.5	Six1-Eya2 inh: -13.5	TRPV1 PAM: ·	Sfp inh: ·	D2 potentiator: -3.1

Carrying on.
Compound	PINK1 expr mod	D2 agonist	CtBP-E1A inh	Six1-Eya2 inh	TRPV1 PAM	Sfp inh	D2 potentiator
CCSc1ncccc1C(=O)N[C@@H](CCSC)C(=O)OC	-2.1%	1.3	-15.6	-12.9	18.8	13.7%	-0.9
COc1ccc(NC(C#N)c2ccc(OC)cc2)cc1 (stereo not given)	0.3%	-1.6	0.4	-0.8	-0.8	16.6%	-9.0
O=C(O)c1ccc(CSc2nnc(-c3ccco3)n2-c2ccccc2)cc1	0.3%	1.4	-1.0	3.1	17.9	-12.7%	-2.0
O=C1CCCc2c1[nH]c1ccccc21	-2.9%	1.3	1.9	5.2	-5.1	8.0%	13.1
Clc1ccccc1-c1nnc2sc(-c3cccs3)nn12	25.4%[38.3 µM]	-1.0	14.3	-4.7	-23.5	?	0.1
Cc1ccc(-c2csc(N=C(N)N)n2)cc1	6.6%	-0.3	-23.4	-8.5	·	13.5%	-22.4
Cn1c(SCC(=O)Nc2cccc3ccccc23)nc(O)cc1=O	0.3%	-3.5	1.4	-4.3	?	5.5%	-13.4
O=C1CC(c2ccc(S(=O)(=O)NCCOc3ccccc3)cc2)CN1 (stereo not given)	-5.0%[38.3 µM]	0.5	2.8	1.1	0.4	5.5%	-9.7
Nc1c(NCc2ccccc2F)c(=O)[nH]c(=O)n1Cc1ccccc1	6.7%	-0.6	-1.3	1.0	28.3	?	-2.5
CC(C)(C)c1[nH]nc2c1C(c1ccncc1)C(C#N)=C(N)O2 (stereo not given)	2.4%	2.0	13.2	1.8	-0.7	5.3%	-9.0
CC(C)CC(C(=O)NC(C)(C)C)N(Cc1ccccc1Cl)C(=O)c1snc(C(N)=O)c1N (stereo not given)	6.1%	-2.1	1.1	-2.9	-19.4	17.3%	-1.2
N#Cc1c(N)n(-c2ccc(C(=O)O)cc2)c2nc3ccccc3nc12	0.7%	-2.2	-19.6	?	2.1	18.3%	-1.8
CC1CCN(c2nc3c(c(=O)[nH]c(=O)n3C)n2CCSc2ncccn2)CC1	2.7%	-6.9	1.2	0.0	·	·	-4.4
CCOC(=O)C1CCCN(C(=O)c2cn(-c3ccccc3)nc2-c2cccnc2)C1 (stereo not given)	2.7%	-7.5	2.6	4.9	-2.8	·	-24.4
O=C(CSc1nnc(SCc2ccccc2)s1)N/N=C/c1c(Cl)cccc1Cl	7.8%	1.8	0.5	-2.9	-4.9	?	11.7
CC(C)c1cccc(-c2csc(C(C)(O)c3ccc(F)c(F)c3)n2)c1 (stereo not given)	-1.4%	4.7	1.6	21.1	·	·	-2.4
Cc1nn(-c2ccccc2)c(Cl)c1C(=O)NCC(=O)O	2.3%	-2.8	8.2	3.0	-15.8	16.7%	5.3
Cc1cc(C)cc(Cn2cc(CN3CC(N(C)C)CS3(=O)=O)nn2)c1 (stereo not given)	-0.2%	·	1.1	-2.3	·	·	·
Cc1ccc(NC(=O)CC2S/C(=N/N=C/C=C/c3ccccc3)NC2=O)cc1Cl (stereo not given)	?	-2.4	-2.5	9.9	6.6	-2.3%	-0.7
